AID923: qHTS Assay for Allosteric/Competitive Inhibitors of Caspase-1: Spectroscopic Profiling in AFC Spectral Region. Potency, µM (doses to about 57.5 µM), inactives show top-dose fluorescence increase, hits mostly activators. compound fluorescence, AFC spectral region (405/520 nm); almost no hit is shown here. 1.1% of 75,000 active. AID 923, 2007; active means well fitted activation curve with a large enough effect; inconclusive means small, poorly fitted or top-dose-only effect;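 further: potency means the concentration at half of the fitted maximal effect; 0% is about no effect; scaled to a free AFC standard on each plate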
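Compound autofluorescence profiled at 405 nm ex/520 nm em during kinetic caspase 1 run (50 nM enzyme, 5 uM Ac-WEHD-AFC, HEPES pH 7.5, 10 mM DTT). Titration up to 57 uM; baseline from regression intercept, normalized to AFC standard curve.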
TSHR agonist: activates the human thyroid stimulating hormone receptor; 0.48% of 73,000 active; Potency, µM (top dose mostly 57.1 µM), inactives show top-dose activation, actives largely listed as activators; HEK293-CNG-TSHR cells (CNG channel as cAMP sensor), membrane potential dye, cAMP; P16473; active = well fitted activation curve of enough size with the parental cells flat; inconclusive = any curve in the parental cells; inactive = parental cells flat and receptor cells flat or falling; further: potency means the concentration at half of the fitted maximal effect; % of control where 0% means no effect; weak receptor curves with flat parental cells got no call and are not listed
Target sequence (P16473 whole entry, looked up): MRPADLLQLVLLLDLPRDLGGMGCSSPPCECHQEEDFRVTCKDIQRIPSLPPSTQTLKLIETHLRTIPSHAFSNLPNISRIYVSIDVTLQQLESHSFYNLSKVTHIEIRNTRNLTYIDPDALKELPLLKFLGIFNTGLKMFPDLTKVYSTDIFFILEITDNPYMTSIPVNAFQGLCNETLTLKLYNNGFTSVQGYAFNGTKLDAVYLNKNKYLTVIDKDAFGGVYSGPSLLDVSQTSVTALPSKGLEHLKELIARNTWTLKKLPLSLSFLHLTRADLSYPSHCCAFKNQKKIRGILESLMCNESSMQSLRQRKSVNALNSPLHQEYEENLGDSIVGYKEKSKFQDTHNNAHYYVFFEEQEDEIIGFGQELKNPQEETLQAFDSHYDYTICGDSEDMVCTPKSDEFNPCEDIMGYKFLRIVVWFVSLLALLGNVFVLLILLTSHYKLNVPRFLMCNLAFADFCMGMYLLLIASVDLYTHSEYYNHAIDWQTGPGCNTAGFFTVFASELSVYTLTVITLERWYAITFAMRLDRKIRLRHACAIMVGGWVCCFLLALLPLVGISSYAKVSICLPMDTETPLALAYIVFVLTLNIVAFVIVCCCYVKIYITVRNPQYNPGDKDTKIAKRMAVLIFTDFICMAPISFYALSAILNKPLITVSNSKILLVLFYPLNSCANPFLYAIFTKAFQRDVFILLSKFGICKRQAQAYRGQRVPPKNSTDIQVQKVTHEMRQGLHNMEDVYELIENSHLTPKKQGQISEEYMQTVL
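HEK 293 cells stably expressing TSHR and a cAMP-gated CNG channel; parental CNG-only cells as counterscreen. Cells preloaded 60 min with membrane potential dye plus 100 uM RO 20-1724, then compound 30 min; fluorescence read at 590 nm.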
A647 fluor: A647 region autofluorescence. Compound fluorescence, A647 channel (570/671 nm), Tris buffer. 59,000 tested, under 10 active. max dye-equivalent concentration, M; active means above 1 µM dye equivalent; inconclusive means 0.1 to 1 µM; inactive means 0.1 µM or less;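 further: values scaled relative to a standard on each plate; highest value over a series up to 38 µM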
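Compounds pinned into 100 mM Tris pH 8.0, 15 min at room temperature, then read with 570 nm excitation/671 nm emission filters. Fluorescence normalized to an on-plate six-point Alexa 647 standard curve, giving dye-equivalent concentration per compound concentration.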
Resorufin fluor: compound fluoresces in the resorufin spectral region | max dye-equivalent concentration, M | 0.04% of 59,000 active | Compound fluorescence, resorufin region 547/598 nm, buffer; stronger effect = higher value; active = above 10 nM dye equivalent; inconclusive = 1 to 10 nM; inactive = 1 nM or less; a few of its hits are not listed in these tables; further: highest value over a series up to 38 µM
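Compounds in 100 mM Tris, pH 8.0, incubated 15 min at room temperature, then fluorescence read at 547 nm excitation/598 nm emission. Signal converted to dye-equivalent concentration via an on-plate six-point resorufin standard curve, per compound concentration.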
A488 fluor: compound fluoresces in the A488 spectral region. compound autofluorescence, A488 spectral region, dye equivalency; stronger effect = higher value. max dye equivalency, M. 0.1% of 59,000 active. AID 591; active = above 10 nM dye equivalent; inconclusive = 1 to 10 nM; inactive = 1 nM or less; about half of its hits are not listed in these tables;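 further: highest value over a series up to 38 µM; compound alone in buffer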
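Compound autofluorescence was read in 100 mM Tris pH 8.0 after 15 min at room temperature, ex 480 nm/em 540 nm. Intensities were converted to A488 dye-equivalent concentration using an on-plate six-point A488 standard curve.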
The depositor's hits bear a star; i = inactive; ? = inconclusive; nt = not tested or not shown; & = joins results of further samples; [ ] = remark or other dose. This is a subset, so the mix of outcomes need not match the whole.

SMILES	AID923	TSHR agonist	A647 fluor	Resorufin fluor	A488 fluor
O=C(NC(C(=O)c1ccccc1)N1CCOCC1)c1ccccc1 (stereo not drawn)	0.6%	?	nt	nt	nt
CC(Sc1ccccc1)C(=O)Nc1cccc(N(C)S(C)(=O)=O)c1 (stereo not drawn)	1.1%	27.7%	1.49e-08	i	i
Cc1cc(=O)oc2cc(OC(C)C(=O)Nc3nccs3)ccc12 (stereo not drawn)	4.1%	1.2%	4.7e-09	i	i
Cc1nc(Sc2nnnn2C)c2c3c(sc2n1)CCC3	-0.4%	6.3%	1e-09	i	i
Cc1oc(-c2ccccc2Cl)cc1-c1nn2c(-c3ccco3)nnc2s1	-0.8%	nt	1e-09	i	i
COc1ccccc1-n1c(CNC(=O)c2ccco2)nnc1SCC(=O)Nc1cc(C)ccc1C	-0.6%	3.3%	2.46e-08	i	i
C[C@@H](C(=O)Nc1ccc2ccccc2c1)[C@@H]1C[C@@]1(C)[C@@H](NC(=O)c1ccccc1)c1ccccc1	2.0%	?	nt	nt	nt
CCOC(=O)c1cnc(-n2nc(C)cc2C)nc1Nc1cccc(C(=O)O)c1	2.5%	25.1µM*	2.35e-08	i	i
O=C1c2ccccc2C(=O)N1CCCP(=O)(O)CCc1ccccc1	1.0%	nt	3.94e-08	i	i
O=C(CCc1ccccc1)NCc1ccccn1	0.3%	1.6%[11.4 µM]	nt	nt	nt
CCOC(=O)c1oc2ccc(S(=O)(=O)Nc3ccc4c(c3)n(C)c(=O)n4C)cc2c1C	1.2%	12.2%	1e-09	i	i
Cc1ccc(-n2nc(C)c3c2OC(N)=C(C#N)C3c2ccccc2F)cc1 (stereo not drawn)	-1.9%	?	nt	nt	nt
COC(=O)C1=CNC=C(C(=O)OC)C1c1cccc(OC)c1	1.3%	9.5%	4.21e-08	i	i
CCOc1ccc(S(=O)(=O)N2CCc3ccccc3C2)cc1	0.1%	23.6%	2.75e-08	i	i
N#CCCCn1c(-c2ccccc2)noc1=O	-3.3%	-6.4%	5.2e-09	i	i
CCOC(=O)c1[nH]c2ccc(F)cc2c1NC(=O)CN1CCN(C/C=C/c2ccccc2)CC1	-1.2%	?	1.3e-09	i	i
Cc1ccc(Cl)cc1N1CCN(S(=O)(=O)c2cnc[nH]2)CC1	0.6%	-11.2%	nt	nt	nt
CCN(C(=O)c1cnc2scc(C)n2c1=O)c1ccccc1C	1.0%	-1.6%	nt	nt	nt
CC(=O)Nc1ccc(S(=O)(=O)NCCNC(=O)c2ccccc2F)cc1	-2.8%	9.7%	2.02e-08	i	i
O=C(c1cccc(N2CCCC2=O)c1)N1CCN(c2ccccc2)CC1	0.0%	2.3%	4e-09	i	i
Cc1cc(C)n(S(=O)(=O)c2ccc(C(C)(C)C)cc2)n1	-0.4%	?	1e-09	i	i
COc1ccccc1-c1ccc(NC2CCCCC2)nn1	0.5%	?	2.2e-09	i	i
N#Cc1c(-c2ccc3c(c2)OCO3)csc1N	-0.1%	-0.1%	4.73e-08	i	i
COc1cc(NC(=O)Cc2ccccc2)cc(OC)c1	0.7%	-7.1%	nt	nt	nt
CC(C)Cn1c(CN2CCN(c3ccccc3F)CC2)nc2c1c(=O)[nH]c(=O)n2C	-2.8%	-0.8%	nt	nt	nt
CN(C)C(=O)Cn1nc(-c2ccccc2)c2ccccc2c1=O	-0.8%	12.3%	3.09e-08	i	i
Cc1nc(NC2=NCN(C3CCCCC3C)CN2)nc2ccccc12 (stereo not drawn)	1.4%	25.1%	6.5e-09	i	i
O=C(Cc1ccccc1)NCc1nc2ccccc2[nH]1	-2.1%	-0.7%	1e-08	i	i
O=c1[nH]cnc2scc(-c3cccs3)c12	5.6%	21.2%	2.3e-09	i	i
Cc1c(NC(=O)CCc2ccc(S(=O)(=O)N3CCOCC3)cc2)c(=O)n(-c2ccccc2)n1C	-4.9%	2.3%	1e-09	i	i
COC(=O)c1sccc1NC(=O)c1ccc2c(c1)OCO2	0.5%	-5.5%	nt	nt	nt
O=C(C1CCN(S(=O)(=O)c2ccc(Br)s2)CC1)N1CCc2ccccc21	-0.1%	?	3.12e-08	i	i
CCCCCCn1c(N2CCC(C)CC2)nc2c1c(=O)[nH]c(=O)n2C	0.4%	nt	2.94e-08	i	i
Cc1cc(Nc2ccc(F)cc2Cl)n2nc(C)nc2n1	-0.3%	5.0%	nt	nt	nt
Cc1cc(C)n(-c2ccc(C(=O)OCC(=O)Nc3ccc(S(=O)(=O)N4CCOCC4)cc3)cc2)n1	0.5%	0.8%	4.46e-08	i	i
Cc1ccnc(NC(=O)C2CCCN(S(=O)(=O)c3cnc[nH]3)C2)c1 (stereo not drawn)	0.3%	3.0%	nt	nt	nt

Profiles, looked up by structure.
Record of COC(=O)c1sccc1NC(=O)c1ccc2c(c1)OCO2 → AID923: 0.5%; TSHR agonist: -5.5%; A647 fluor: nt; Resorufin fluor: nt; A488 fluor: nt
Record of CC(C)Cn1c(CN2CCN(c3ccccc3F)CC2)nc2c1c(=O)[nH]c(=O)n2C → AID923: -2.8%; TSHR agonist: -0.8%; A647 fluor: nt; Resorufin fluor: nt; A488 fluor: nt

Other records follow:
SMILES	AID923	TSHR agonist	A647 fluor	Resorufin fluor	A488 fluor
CC(=O)NCC(=O)NC(C(=O)Nc1ccc2c(c1)OCCO2)c1ccc(C)cc1 (stereo not drawn)	0.9%	19.9%	1.18e-08	i	i
CC(=O)OC(C)(C)N=Nc1ccc(Br)cc1	nt	nt	2.05e-08	i	i
COc1ccc(-c2nc3c(n2O)CCC/C3=N\O)cc1	0.9%	5.4%[11.4 µM]	nt	nt	nt
Cc1nnc(SCC(=O)c2c(N)n(C)c(=O)n(C)c2=O)n1Cc1ccccc1	-0.4%	1.2%	2.32e-08	i	i
OC(CNCc1ccco1)Cn1c2ccccc2c2ccccc21 (stereo not drawn)	-1.1%	11.0%	1.93e-08	i	i
O=C1NC(c2cccnc2)C(C(=O)c2cccs2)C(O)(C(F)(F)F)N1 (stereo not drawn)	0.8%	3.4%	1e-09	i	i
Cc1ccc2[nH]c(=O)c(CNC(C)C)cc2c1	-1.2%	3.6%	1e-09	i	i
O=C(c1ccccc1)c1cccn1CC(=O)N1CCCCCC1	-0.1%	3.0%	3.49e-08	i	i
CC1(C)CC(=O)C2=C(C1)Oc1ncn(CCO)c(=N)c1C2c1ccccc1 (stereo not drawn)	0.1%	?	1e-09	i	i
COc1ccc(CN(C(=O)CSc2nnc(-c3ccccc3F)o2)c2ccc(F)cc2)cc1	1.5%	?	3.48e-08	i	i
COCCCNC(=O)CCN1C(=O)COc2ccccc21	-0.1%	-3.6%	1e-09	i	i
Cc1nc2nc(COc3ccccc3)[nH]n2c(=O)c1Cc1ccccc1	1.3%	14.4%	1e-09	i	i
CCOC(=O)c1c(N)c(C#N)cn1-c1ccccc1	4.4%	6.4%	4.2e-09	i	i
Cc1nc2ncnn2c(Nc2ccc3c(c2)OCO3)c1Cc1ccccc1	-2.1%	?	2.3e-09	i	i
Cc1nc2ccccc2c2oc(C(=O)NCCN3CCCCC3C)cc12 (stereo not drawn)	-3.4%	8.0%	nt	nt	nt
C=CCC1(c2ccccc2)Oc2ccccc2-c2nc3cc(Cl)c(Cl)cc3nc21 (stereo not drawn)	2.5%&2.2%[11.5 µM]	3.1%&-0.2%[11.4 µM]	nt	nt	nt
CCOc1cc2[nH]c(=S)n(CCCN3CCCC3=O)c(=O)c2cc1OCC	1.4%	6.4%	3.15e-08	i	i
Nc1ccc(-c2cnc(-c3ccc(N)cc3)nc2)cc1	-1.1%	-12.2%	7.2e-09	i	i
COC(=O)CN1C(=O)CC(C)(C)Sc2ccccc21	-1.6%	2.8%	nt	nt	nt
Cc1nc2oc3c(NCc4ccccc4)ncnc3c2c2c1COC(C)(C)C2	0.1%	-1.2%	1.47e-08	i	i
Cc1ccc(-c2nc(NC(=O)CSc3nnnn3-c3ccccc3)ns2)cc1	-0.3%	?	4.24e-08	i	i
Cc1ccccc1N1C(=O)c2cc(S(N)(=O)=O)c(Cl)cc2N[C@H]1C	1.3%[25.7 µM]	1.8%[25.6 µM]	1.3e-09	i	i
Cc1cc(C)n(-c2nc3ccccc3c(=O)n2OCC(=O)Nc2c(C)cccc2C)n1	5.0%	12.6µM*	3.7e-08	i	i
COc1ccccc1N1CCN(C(=O)Cn2nnc(-c3cccs3)n2)CC1	-1.2%	0.0%	1e-09	i	i
O=C(O)COc1c(Cl)cc(Cl)c2cccnc12	3.1%[11.5 µM]	-1.4%[11.4 µM]	1e-09	i	i
Cc1c(Cl)cccc1N1C(=O)CC(N(O)c2ccccc2)C1=O (stereo not drawn)	1.0%	22.3%	2.6e-09	i	i
COc1ccc(C(=O)Nc2cccc(N(C)S(C)(=O)=O)c2)cc1OC	0.9%	11.1%	1e-09	i	i
CCOC(=O)Cc1nnc(Nc2cccc(O)c2)c2ccccc12	nt	nt	3.5e-09	i	i
Cn1c(SCC(=O)N2CCOCC2)nc2cccnc21	-0.5%	0.0%	1e-09	i	i
CCN(CC)c1nc(C#N)nc(N(CC)CC)n1	0.6%	?	1e-09	i	i
O=C1c2ccccc2C(Nc2cccc(C(F)(F)F)c2)N1Cc1ccco1 (stereo not drawn)	-1.0%	?	1e-09	i	i
O=C1CCCc2c1cc(C(=O)Nc1ccc(Cl)cn1)c(=O)n2-c1ccccc1	1.6%	?	9.4e-09	i	i
c1ccc(-c2nnc(N3CCOCC3)nc2-c2ccccc2)cc1	-1.0%	?	nt	nt	nt
OCc1cc(CO)c(O)c(CCc2ccccc2)n1	4.0%	0.9%	1e-09	i	i
COCCn1c(C)cc(C(=O)COC(=O)CCN2C(=O)c3ccccc3C2=O)c1C	0.1%	-0.8%	2.6e-09	i	i
CCC(Sc1ncnc2c1nnn2-c1ccc(F)cc1)C(=O)OC (stereo not drawn)	-2.2%	5.7%	nt	nt	nt
COCC(=O)N1CCC2(CCCN(C(=O)Nc3ccc(OC)cc3)C2)CC1	3.0%	2.7%	1e-09	i	i
O=C(CCSCCC(=O)N1CCCC1)N1CCCC1	-1.4%	4.5%	3.2e-09	i	i
Cn1cnnc1SCC(=O)N1c2ccccc2-c2c(ssc2=S)C1(C)C	0.3%	-13.1%	1.6e-09	i	i
Cc1nn(C(=O)c2ccc3c(c2)OCO3)c(N)c1-c1ccccc1	3.0%	-3.1%[11.4 µM]	nt	nt	nt
CC(=O)c1ccccc1OC(=O)c1ccco1	-0.2%	2.0%	nt	nt	nt
CN1CCN(CCC(=O)Nc2ccc(OCc3ccccc3)cc2)CC1	1.2%	10.5%	2.4e-09	i	i
CC(=O)NCCN=Cc1sc2ccccc2c1O	6.6%	?	nt	nt	nt
COc1cccc(Cn2c(=O)c(-c3cn(C)c4ccccc34)nc3cnc(N4CCOCC4)nc32)c1	16.7%	?	3.3e-09	i	i
CCOC(=O)c1sc2nc3n(c(=O)c2c1C)CCCCC3	0.6%	15.6%	nt	nt	nt
CCn1c2ccccc2c2nnc(NCCCO)nc21	2.8%[11.5 µM]	-0.5%[11.4 µM]	1e-09	i	i
CCOC(=O)c1c(NC(=O)COC)sc(C(C)=O)c1C	-2.6%	9.7%	1e-09	i	i
Brc1ccc(-c2nnc(-c3ccc4c(c3)OCO4)o2)o1	-1.2%	nt	1e-09	i	i
O=S(=O)(c1ccc(NC2CCCc3ccccc32)nc1)N1CCOCC1 (stereo not drawn)	0.5%	7.2%	8.4e-09	i	i
COc1cccc(CNC(=O)C2CCN(S(=O)(=O)c3ccc4c(c3)CCC(=O)N4)CC2)c1	0.0%	-8.9%	nt	nt	nt
c1csc(CNc2ccnc(-c3ccoc3)n2)c1	2.6%	3.4%	6.7e-09	i	i
CCc1ccc(NC(=O)C(C)Nc2ccc(S(=O)(=O)NC(C)=O)cc2)cc1 (stereo not drawn)	1.6%	21.5%	1e-09	i	i
